Bioassay records: PubChem BioAssay, ICCB-Longwood Screening Facility, Harvard Medical School
Ba CapD inh: blocks the Bacillus anthracis CapD enzyme | purified CapD enzyme, fluorescence intensity read-out; hits give low values; some hits fall short of the stated cut | z-score (no concentration beside the values) | 140,000 tested, 0.23% active;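 active = z-score under -4 in either of two replicates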;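 also: stock transfer was 100 nL into about 40 µL; score is relative to mean and spread of the plate; one replicate is shown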
AID504770: E. coli YBA685 growth inhibition, screen for V. cholerae RctB inhibitors. E. coli YBA685 rctB-dependent plasmid, OD600 growth, 3 h; hits give low values. z-score (test concentration not listed). 130,000 tested, 0.27% active. AID 504770;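 active = z-score under -2 on both plates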;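 also: wells of about 30 µL received 100 nL stock; score is relative to mean and SD of the test wells; the first replicate is given; strong numbers were not always called active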
Numbers without * were called inactive; x = no result given; & = joins results of further samples. These rows are one share of the data (hit frequency here may not be typical).

Results follow in this order: Ba CapD inh	AID504770
- CCCN(Cc1cccs1)C(=O)Nc1ccccc1CC
    -0.41	-0.5
- CCN(CC)c1ccc(NC(=O)Nc2ccc(OCc3ccccc3)cc2)cc1
    2.6	0.75
- COc1cc(C2C(C#N)=C(N)Oc3n[nH]c(C(F)(F)F)c32)ccc1OCC(N)=O (configuration not stated)
    x	0.05
- CC(C)(C)n1ncc2c(=O)n(CC(=O)NC3CCCC3)cnc21
    x	1.7
- COc1ccc(C(=O)NCc2nnc(SC)n2-c2ccc(OC)cc2)cc1
    x	-0.4
- COC(=O)Cn1nnnc1-c1ccc(C)cc1
    -1.5	0.4
- CC(=O)CS(=O)(=O)c1ccc(Cl)cc1
    -0.32	x
- O=S(=O)(Cc1nc2ccccc2[nH]1)c1ccccc1
    0.085	0.25
- CC(C)(C)c1cc2nc(C(F)(F)F)cc(N3CCN(S(=O)(=O)c4ccc(Br)cc4)CC3)n2n1
    14	x
- CN(C)CCNc1cc(N2CCOCC2)c2noc3c2c1C(=O)c1ccccc1-3
    -1	0.45
- OCCSc1ncnc2sc3c(c12)CCC3
    4.3	0
- CC1(C(=O)c2ccccc2)C2c3cc(Br)ccc3OC(=O)C21C(=O)N1CCOCC1 (configuration not stated)
    0.14	0.6
- CCOC(=O)c1c(NC(=O)C(C)Sc2ncccn2)sc2c1CCC2 (configuration not stated)
    -0.34	1.3
- CN(C1=CC(=O)c2ccccc2C1=O)c1ccccc1
    -0.1	1
- O=C(NCCc1ccc(Cl)cc1)C1CCN(C(=O)NC2CCCCC2)CC1
    x	-1.3
- N#CC(C#N)=CNc1cc(C(F)(F)F)ccc1N1CCOCC1
    -0.12	-0.1
- C=CCOC(=O)C1C2NC(=S)N(CCCOC)C1(C)Oc1c(OCC)cccc12 (configuration not stated)
    -1.1	-0.2
- CCOC(=O)c1ccc(NC(=O)c2sc(NC(=O)CCc3ccccc3)c(C(=O)OCC)c2C)cc1
    0.3	x
- COc1ccccc1S(=O)(=O)Cc1ccc(C(=O)NCCN2CCCC2)o1
    -0.26	0.8
- CC1=CC(=C(C#N)C#N)C=C(C)N1CCC(C)C
    x	-0.15
- COc1ccccc1-c1cc(C(=O)NCc2cccs2)no1
    -0.66	-0.7
- CC(=O)NC(=O)c1cc2cc(Cl)cc(Cl)c2oc1=Nc1ccc(C#N)cc1
    0.78	x
- Cc1nn(C(=O)c2cccs2)c(N)c1-c1ccccc1
    -0.15	0.2
- CCOCC(=O)NCc1ccc(OC)cc1
    -0.015	-0.7
- CC(C)(C)OC(=O)N1CCC(CNS(=O)(=O)c2cccc3nonc23)CC1
    0.13	0.7
- OCCOc1nnnn1-c1ccccc1
    -0.24	-0.35
- Nc1noc(Cc2c(Cl)cccc2Cl)n1
    0.73	0.35
- CCOc1cc(C(=O)NCCN(C)C)cc(OCC)c1OCC
    0.33	-0.8
- c1cn2cc(Cc3nnc4n3CCCCC4)nc2s1
    x	0.85
- COc1ccc(C(=O)Nc2nn3c(CC(C)C)nnc3s2)cc1
    -0.13	-0.3
- Fc1ccc(-n2c(C34CC5CC(CC(C5)C3)C4)n[nH]c2=S)cc1
    0.33	-0.95
- Cc1ccccc1Nc1ccc2noc3c2c1C(=O)c1ccccc1-3
    x	-0.35
- CN(CC(=O)N1CCc2ccccc21)S(=O)(=O)c1ccc2c(c1)CCCC(=O)N2
    0.78	-0.1
- COc1cc(CC/C(C)=N/O)ccc1OCc1ccc(Cl)c(Cl)c1
    -0.01	x
- Cc1ccc(NC(=O)Nc2ccc(C(N)=O)cc2)cc1
    -0.15	-0.55
- O=C(O)CCSC1CC(=O)N(c2ccc(F)cc2)C1=O (configuration not stated)
    -0.1	-0.15
- Cc1c(N2C(=O)c3ccccc3C2(O)c2ccccc2)c(=O)n(-c2ccccc2)n1C (configuration not stated)
    0.12	-0.45
- CCOC(=O)c1c(SC)nc2ccc(Cl)cc2c1N1CCN(C)CC1
    -0.46	0.45
- Cc1cc2nn(-c3ccccc3)nc2cc1NC(=O)C(C)C
    12	0.45
- CSC1=NC=C(C#N)C2=NC(c3c(F)cccc3Cl)NN12 (configuration not stated)
    0.98	0.1
- CCOc1cc(C2C(C(=O)Nc3ccccc3)=C(C)Nc3ncnn32)ccc1OC(=O)c1ccccc1 (configuration not stated)
    -0.48	x
- Clc1ccc(C2N(c3ccccc3)CCN2c2ccccc2)cc1
    -0.21	x
- Cc1cc(C)nc(/N=C(/N)N2CCCCC2)n1
    x	2.5
- COc1ccc(C(=O)NCC(=O)OCc2nc3ccccc3c(=O)n2CC#N)cc1OC
    x	-0.2
- CC1=C/C(=N/NC(=O)C2CC2)CC1
    x	-0.95

Copied from the list:
CN(CC(=O)N1CCc2ccccc21)S(=O)(=O)c1ccc2c(c1)CCCC(=O)N2 in AID504770 reads -0.1
Cc1c(N2C(=O)c3ccccc3C2(O)c2ccccc2)c(=O)n(-c2ccccc2)n1C (configuration not stated) in AID504770 reads -0.45
COc1cc(CC/C(C)=N/O)ccc1OCc1ccc(Cl)c(Cl)c1 in Ba CapD inh reads -0.01
Fc1ccc(-n2c(C34CC5CC(CC(C5)C3)C4)n[nH]c2=S)cc1 in Ba CapD inh reads 0.33

Other results.
Results follow in this order: Ba CapD inh	AID504770
- CC(CN1CCN(Cc2ccccc2)CC1)OC(=O)c1ccco1 (configuration not stated)
    0.29	-0.35
- O=C(OCc1nc(-c2ccccc2)oc1COC(=O)c1ccco1)c1ccco1
    x	0
- Cc1nn(-c2ccccc2)nc1CNS(=O)(=O)c1cccc2ccccc12
    -0.075	2
- CCOc1ccc2nc(NCCCNC(=O)C3CCCO3)c(C#N)cc2c1 (configuration not stated)
    x	0.2
- O=C(O)c1ccc2c(=O)n3c4ccc(Cl)cc4nc3c3ccc(C(=O)O)c1c23
    -1.1	x
- C=CS(=O)(=O)Cc1ccccc1
    0.69	-1.2
- C[C@H](NC(N)=O)C(=O)Nc1ccccc1
    x	-1.2
- CCCc1c(O)nc(SCC(=O)N2CCCCC2)[nH]c1=O
    x	-0.3
- CCc1cccc(CC)c1NC(=O)Cn1nc(C(F)(F)F)nc1N
    x	0.25
- CC(C)(C)c1ccc(S(=O)(=O)Nc2ccc3c(c2)N(S(=O)(=O)c2cccc(C(F)(F)F)c2)CC3)cc1
    -0.6	x
- CCOC(=O)C(CC)n1cnc2c(cnn2-c2ccc(Cl)cc2)c1=O (configuration not stated)
    -0.6	0.5
- Cc1cccn2c(=O)c(C=Nc3ccccc3)c(NCCO)nc12
    x	-1.1
- COc1ccc(/C=C/C(=O)N[C@@H](C)C(=O)O)cc1
    x	0.25
- Cc1ccc(OCCn2ncc3ccccc3c2=O)c(C)c1
    9.2	-0.1
- CN1C(=O)C(O)N=C(c2ccccc2)c2cc(Br)ccc21 (configuration not stated)
    -0.32	x
- Nc1nc(-c2ccccc2)c(NC(=O)c2ccccc2Cl)s1
    -0.73	0.75
- Cc1cccc(N2C(=O)C(=O)/C(=C(\O)c3ccc(Cl)cc3)C2c2ccc(Br)cc2)c1 (configuration not stated)
    -0.025	x
- Cc1ccccc1NC(=O)CSC1=C(C#N)C(c2ccc(C(C)C)cc2)CC(=O)N1 (configuration not stated)
    -0.85	x
- O=C(NC1CCS(=O)(=O)C1)c1c(Cl)cccc1Cl (configuration not stated)
    1.5	-0.9
- O=C(CCCn1c(=S)[nH]c2ccc(Br)cc2c1=O)N1CCN(c2cccc(Cl)c2)CC1
    0.095	x
- CC(=O)NC(c1ccccc1F)C1CCCCC1=O (configuration not stated)
    0.055	-0.35
- Cn1nc(C(C)(C)C)c(NC(=O)c2ccc(F)cc2)c1C(C)(C)C
    -0.59	-1
- Cc1c(C(N)=O)ncn1Cc1ccc(Cl)cc1
    0.24	0.9
- CCN1C(=O)/C(=C\C(C)=C\c2ccccc2)SC1=S
    -0.51	-0.5
- COc1cc2c(cc1OC)C(C)N(c1ncnc3c1cnn3C)CC2 (configuration not stated)
    -0.53	-0.85
- C=CCn1c(SC(CCO)C(=O)NCc2ccco2)nc2sc3c(c2c1=O)CCC3 (configuration not stated)
    x	0
- N#Cc1nc2c(-c3nc4ccccc4s3)c(N)n(-c3ccc(Cl)cc3)c2nc1C#N
    -0.74	-0.35
- O=C1/C(=C/c2ccco2)CCC/C1=C\c1ccco1
    -1.3	x
- CN(Cc1coc(-c2ccccc2)n1)Cc1coc(-c2ccccc2)n1
    x	-0.3
- O=c1[nH]n(-c2ccccc2Cl)c(=O)c2ccccc12
    -1.1	1.4

Continued:
smiles	Ba CapD inh	AID504770
O=C(CN1CCCc2ccccc21)N1CCCc2ccccc21	-0.11	-0.25
CC12CCC(c3c(C(F)(F)F)n[nH]c31)C2(C)C (configuration not stated)	-0.96	-0.25
Nc1ccc2nc(-c3ccc(N)c(Cl)c3)[nH]c2c1	x	-0.35
COc1ccc(-c2nc3ccccc3c(=O)n2NC(=O)c2ccc(Cl)cc2Cl)cc1OC	-0.25	x
O=[N+]([O-])c1cccc(C2Oc3ccccc3C3CC(c4ccccc4)=NN32)c1 (configuration not stated)	-0.47	x
O=c1[nH]c(=S)[nH]c2sc3c(c12)CCC3	0.16	x
Cc1cc(=O)oc2cc(NS(=O)(=O)c3cccs3)ccc12	89	-0.5
CCOC(=O)c1cnc(NNC(=O)C(F)(F)F)nc1C(F)(F)F	-1.6	-1
N#CC1=C(N)Oc2n[nH]c(-c3ccccc3)c2C12C(=O)Nc1ccc(Br)cc12 (configuration not stated)	-0.31	x
COc1cc(OC)c2c3c(c(=O)oc2c1)CCC3	70	-0.85
CCOC(=O)c1c(NC(=O)C(C)Sc2nnc(CNC(=O)c3cccc(F)c3)n2CCc2ccccc2)sc2c1CCC2 (configuration not stated)	-0.62	x
Cc1cc(=O)n(C(N)=S)[nH]1	-1.5&-0.44	0.65&-1.5
CCC(=O)/C=C(\O)c1ccc(Br)cc1	-1.3	-0.1
Cc1ccc(C2=NCN(c3ccc(C(=O)O)cc3)C(=S)N2)cc1	4.6	-0.75
Cc1nn(-c2ccccc2)c2sc(C(=O)NCCc3ccc(S(N)(=O)=O)cc3)cc12	x	-0.55

Another view of 4 compounds above.
CC12CCC(c3c(C(F)(F)F)n[nH]c31)C2(C)C (configuration not stated)
- Ba CapD inh = -0.96
- AID504770 = -0.25
Cc1ccc(C2=NCN(c3ccc(C(=O)O)cc3)C(=S)N2)cc1
- Ba CapD inh = 4.6
- AID504770 = -0.75
CCOC(=O)c1c(NC(=O)C(C)Sc2nnc(CNC(=O)c3cccc(F)c3)n2CCc2ccccc2)sc2c1CCC2 (configuration not stated)
- Ba CapD inh = -0.62
- AID504770 = x
CCC(=O)/C=C(\O)c1ccc(Br)cc1
- Ba CapD inh = -1.3
- AID504770 = -0.1

Continuation.
smiles	Ba CapD inh	AID504770
CC1SCCN1S(=O)(=O)c1ccc(Br)cc1 (configuration not stated)	x	-0.3
C=CCn1c(/N=C/c2ccc(Cl)cc2)nc2ccccc21	-1.1	-0.15
COc1ccc(C2=NN3C(C(=O)c4ccc(Br)cc4)Oc4ccccc4C3C2)cc1 (configuration not stated)	0.22	x
CCCCCc1c(O)c2ccccc2[nH]c1=O	x	2
COc1ccc(-c2cc(C)no2)cc1S(=O)(=O)Nc1ccc(C)c(N(C)C)c1	-0.17	-0.35
Fc1ccc(Nc2nc(Nc3ccc(F)cc3)nc(N3CCCCC3)n2)cc1	0.08	-0.05
CC(C)Sc1nnc(NC(=O)C(C)(C)C)s1	x	0.15
CCn1c(C)c(C2N3CC4(C(C)C)CN2CC(C(C)C)(C3)C4=O)c2ccccc21 (configuration not stated)	-1.4	-0.4
COc1ccc2c(c1)c(C(=O)CSc1nnc3c(n1)CCCC3)c(C)n2C	x	-0.2
CCCCn1c(=O)c(CCC(=O)OCC(=O)c2ccc3c(c2)OCCO3)nc2ccccc21	x	0.2
CCCC1(C(=O)OC)NC(c2cc(OC)c(OC)c(OC)c2)C2C(=O)N(c3ccc(C)cc3)C(=O)C21 (configuration not stated)	x	0.95
CN1C(=O)C2C(c3ccccc3)NN(C)C2C1=O (configuration not stated)	x	1
COc1ccc(C(=O)N/N=C/c2cc(F)cc(C(F)(F)F)c2)cc1OC	-0.98	x
CN1CCN(CC(=O)NCCc2ccc(F)cc2)CC1	x	-2.1
O=C1NC2(c3ccccc3)NC(=O)NC2(c2ccccc2)N1 (configuration not stated)	x	-0.35

Two successive compounds already listed, for reference:
smiles	Ba CapD inh	AID504770
CN1CCN(CC(=O)NCCc2ccc(F)cc2)CC1	x	-2.1
O=C1NC2(c3ccccc3)NC(=O)NC2(c2ccccc2)N1 (configuration not stated)	x	-0.35

Going on with the list:
smiles	Ba CapD inh	AID504770
CN(C)C(=O)c1cc(-c2ccccc2)nc2ccccc12	-0.73	2.1
CCOC(=O)Cn1c(=O)n(Cc2ccc(C)cc2)c(=O)c2cccnc21	0.025	-0.6
Nc1ccc2c(c1)nc1n2CCCCC1	x	0.8
COc1ccc(CCN2CN=C(NC#N)NC2)cc1OC	x	-0.1
CC(C)CNC(=O)CSc1ccc(Cl)cc1	0.065	2
Clc1ccc(-c2nnsc2SCc2ccccc2)c(Cl)c1	0	x
S=c1[nH]c(-c2ccccc2)cn1/N=C/c1ccc2c(c1)OCCO2	x	1.4
CO[C@H]1/C=C/O[C@@]2(C)Oc3c(C)c(O)c4c(O)c(c(C=NN5CCN(C)CC5)c(O)c4c3C2=O)NC(=O)/C(C)=C\C=C\C(C)[C@H](O)[C@@H](C)[C@@H](O)[C@@H](C)[C@@H](OC(C)=O)[C@@H]1C (some centres not stated)	-0.11	-0.85
CC(C)(C)c1ccc(C(=O)NNC(=O)c2ccccc2[N+](=O)[O-])cc1	-0.85	x
COc1ccc(C)cc1S(=O)(=O)N1CCC(C(N)=O)CC1	0.17	x
CC[N+](C)(CC)C/C=C1/COCO1	-0.27	1.4
